# FGF22 binding: binders of recombinant human FGF22 by thermal shift; AID 651658; Q9HCT0; calls only at 9.99 µM; SYPRO orange fluorescence; percent of sucrose octasulfate shift, DMSO zero; 340,000 tested, 1.5% active;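 active = melting point raised past a set limit in the mean and every replicate; three in four hits are not shown here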
# Target sequence (Q9HCT0 whole entry, looked up): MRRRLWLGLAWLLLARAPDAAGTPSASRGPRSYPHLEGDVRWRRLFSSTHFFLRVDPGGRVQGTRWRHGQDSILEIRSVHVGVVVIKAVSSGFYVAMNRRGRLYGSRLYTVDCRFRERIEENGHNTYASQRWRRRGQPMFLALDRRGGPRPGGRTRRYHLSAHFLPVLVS
# T cruzi inh: T. cruzi replication inhibition; T. cruzi beta-gal in NIH3T3, luminescence, 90 h; inhibition, % (test concentration not listed); 300,000 tested, 1.4% active;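 active = mean inhibition across valid replicates above about 55%, limit read from the data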;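 also: signal also drops with host cell toxicity which is not excluded here; 0% = plate median of DMSO wells and 100% = zero luminescence signal; higher percent means less beta-gal luminescence so fewer parasites; stock transfer was 50 nL into about 50 µL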
# E coli growth: E. coli growth inhibition. Escherichia coli growth, OD600, 23 h; stronger effect = lower value. OD600 absorbance (concentration not given with the values). 330,000 tested, 0.21% active. AID 1053175;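 active = OD600 absorbance below the run mean of sample wells minus 3.6 SD, in any replicate, cut at about 0.56 in these data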;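 also: stock transfer was 300 nL into about 60 µL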
# rRNA inh HTS: inhibits bacterial ribosomal RNA function over humanized ribosomes; 350,000 tested, 1.6% active; AID 720706; GFP signal change (wild-type ribosome), % (test concentration not listed); E. coli WT GFP vs humanized-ribosome RFP mutants, fluorescence, 24 h; stronger effect = lower value; DMSO median 0, no signal -100;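 active = significant combined selectivity score with lowered wild-type GFP, culture density cut under 30%, mutant RFP and density less affected; inactive = any of these conditions unmet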; also: one replicate is shown; some compounds called inactive have numbers as strong as hits
# Beta apoptosis: blocks beta cell apoptosis; INS-1E cytokine-induced death, ATP luminescence, 48 h; percent of positive-control rescue, neutral wells zero; protection from apoptosis, % (test concentration not listed); 300,000 tested, 0.8% active; AID 435005;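 active = all replicates at 75% or more, or half of them and the mean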;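 also: 0% = cytokine-treated negative control wells and 100% = positive control rescue; higher means more ATP so stronger rescue from cytokine killing; wells of about 40 µL received 100 nL stock; the first replicate is given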
# Bfl-1 A1 inh: inhibitors of the anti-apoptotic protein A1, read as caspase activation. MEF A1-2A-BIM cells, Caspase-Glo 3/7 luminescence, 3 h; percent of clofoctol response, vehicle zero. caspase activation, % (concentration not given with the values). 330,000 tested, 0.066% active;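 active = over half of replicate activation scores above 10%, or exactly half above 10 with the replicate mean above 10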;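 also: wells of about 30 µL received 50 nL stock; many hits fall short of the cut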
# MLL AF4-AF9 inh: MLL-AF4/AF9 protein interaction inhibition; AID 651704; 350,000 tested, 0.47% active; inhibition, % at 10 µM; P42568; AlphaScreen, biotin-AF4 peptide binding to FLAG-AF9;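 active = every replicate reaching a set inhibition limit, whatever the replicate mean, cut at about 25% in these data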;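 also: 0% = plate neutral control median and 100% = total signal loss; the record names both 10 and 1 µM as test concentration; the first replicate is given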
# Target sequence (P42568 whole entry, looked up): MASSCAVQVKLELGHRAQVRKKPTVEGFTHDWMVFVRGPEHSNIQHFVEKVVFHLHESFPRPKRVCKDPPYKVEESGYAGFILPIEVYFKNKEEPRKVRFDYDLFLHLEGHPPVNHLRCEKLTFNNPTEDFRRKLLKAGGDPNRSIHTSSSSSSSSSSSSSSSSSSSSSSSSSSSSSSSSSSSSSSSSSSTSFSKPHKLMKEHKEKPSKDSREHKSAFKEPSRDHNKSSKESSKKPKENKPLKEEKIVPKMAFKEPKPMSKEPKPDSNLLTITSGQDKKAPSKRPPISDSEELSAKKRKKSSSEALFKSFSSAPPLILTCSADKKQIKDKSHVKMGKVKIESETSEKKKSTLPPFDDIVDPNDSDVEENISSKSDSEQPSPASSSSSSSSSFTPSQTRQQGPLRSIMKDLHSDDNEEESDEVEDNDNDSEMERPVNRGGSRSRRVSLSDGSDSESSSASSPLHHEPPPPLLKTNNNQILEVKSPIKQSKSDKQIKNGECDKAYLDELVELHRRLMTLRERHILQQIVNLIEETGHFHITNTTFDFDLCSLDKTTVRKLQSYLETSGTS
# UCH37 inh: inhibitors of human deubiquitinating enzyme UCH37 | Q9Y5K5 | purified proteasome/UCH37, Ub-AMC cleavage fluorescence | inhibition, % (no concentration beside the values) | 330,000 tested, 0.33% active;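 active = mean of two replicates above 20%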;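 also: 0% = compound-free wells with enzyme and 100% = wells lacking proteasome; stock transfer was 100 nL into about 20 µL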
# Target sequence (Q9Y5K5 whole entry, looked up): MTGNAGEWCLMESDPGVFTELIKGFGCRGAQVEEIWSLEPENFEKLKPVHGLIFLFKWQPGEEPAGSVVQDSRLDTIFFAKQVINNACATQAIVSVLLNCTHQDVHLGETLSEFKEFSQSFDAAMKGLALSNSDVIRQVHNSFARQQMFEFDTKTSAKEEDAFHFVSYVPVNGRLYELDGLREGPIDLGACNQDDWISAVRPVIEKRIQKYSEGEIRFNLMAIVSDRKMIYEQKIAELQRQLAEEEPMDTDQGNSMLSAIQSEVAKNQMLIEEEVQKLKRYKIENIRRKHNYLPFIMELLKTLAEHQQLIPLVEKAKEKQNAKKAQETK
#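 Assay system: Proteasome-bound UCH37. Buffer or medium: pH 7.4 Tris-HCl (50 mM) with ovalbumin, ATP-MgCl2, DTT. Incubation: 30 min preincubation with enzyme, 25 min cleavage at room temperature. Measured by: fluorescence, ex 355 nm, em 460 nm. Read-out basis: percent inhibition. Control set: wells without proteasome as full block, compound-free enzyme plus substrate as uninhibited.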
# rRNA inh HTS OD600: recorded beside rRNA inh HTS, whose call it bears; OD600 change, %; measured here: OD600 growth;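 optical density of the mix in the first replicate; 0 = DMSO median and -100 = no signal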
# rRNA inh HTS RFP: recorded beside rRNA inh HTS, whose call it bears; RFP signal change, %; measured here: RFP humanized mutant strains;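 first replicate; 0 = DMSO median and -100 = no signal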
# Active calls of the source: *; i = inactive; . = not tested or not shown. Some of the compounds tested; count on the stated rates, not on these rows.
# Results follow in this order: FGF22 binding, T cruzi inh, E coli growth, rRNA inh HTS, rRNA inh HTS OD600, rRNA inh HTS RFP, Beta apoptosis, Bfl-1 A1 inh, MLL AF4-AF9 inh, UCH37 inh
CC(C)Oc1ccc(C(=O)OC(C)C(=O)NC2CCCCC2C)cc1 (centres undefined)
    i, -18, 0.68, 6, 10, -0.5, 2, 0.0, 0.1, 3.1
CC(=O)OC(C(=O)NC1CCCCC1)c1cccc(C)c1 (centres undefined)
    ., -19, 0.73, ., ., ., ., 1.6, ., 1.1
CN1C[C@@H]2[C@@H]3C(=O)N(Cc4ccccc4)C(=O)[C@@H]3[C@](Cc3ccccc3)(C1=O)N2C(=O)c1ccc(Br)cc1
    i, ., ., -11, -11, -7.0, ., ., -1.3, 4.7
C=CCNC(=S)N/N=C(\C)c1cccc(NC(C)=O)c1
    i, -7, ., -7, 1, -0.2, 2, 0.6, 0.0, .
CC(=Nc1cccc(C)c1)c1sc2ccccc2c1O
    ., 0, 0.69, ., ., ., 5, 0.1, ., -4.3
COc1ccccc1NC(=S)NCC1CCC(CNC(=S)Nc2ccccc2OC)CC1 (centres undefined)
    i, 12, 0.66, 13, 6, 2.1, 6, -0.1, ., -0.7
O=C(O)c1ccn(Cn2cnc3ccccc32)n1
    ., -28, 0.72, ., ., ., -5, 1.3, ., 1.6
Cc1ccc2nc(SCC(=O)Nc3cc(C(C)(C)C)nn3-c3ccccc3)[nH]c2c1
    ., 25, 0.66, ., ., ., 5, -0.6, 1.8, 0.2
COC(=O)/C=C1\SC(N2CCOCC2)=C(c2ccc(OC)cc2)C1=O
    ., 20, 0.67, 11, 23, 0.0, -4, -0.6, -2.7, 8.1
COC(=O)c1cc(NC(=O)c2ccccc2)c(=O)oc1/C=C/Nc1ccc(Oc2ccccc2)cc1
    ., -1, 0.71, 23, 8, 32, ., ., -0.8, 10
O=C(COc1ccc(F)cc1Cl)Nc1cccc(S(=O)(=O)N2CCCC2)c1
    i, ., 0.67, -37, -45, -5.6, ., ., 1.4, 1.7
COCCn1c(C)cc(C(=O)COC(=O)c2n[nH]c3ccccc23)c1C
    ., -1, 0.66, ., ., ., 7, -7.8, ., 3.1
Cc1cc(C(F)(F)F)nc(NCc2cccnc2)n1
    ., 1, 0.67, ., ., ., -12, -0.3, ., -2.2
CCN(CC)c1nc2c(c(=O)[nH]c(=O)n2C)n1Cc1ccccc1Cl
    i, 9, 0.71, 7, 7, -1.2, -5, 0.1, 2.7, 3.1
COc1ccc(CC(=O)NCCS(=O)(=O)N2CCN(c3ccccc3)CC2)cc1OC
    i, -5, 0.62, -2, -4, -2.2, -5, -0.5, -0.8, 2.6
CCC(=O)Nc1sc2c(c1C(=O)OC)CCN(Cc1ccccc1)C2
    i, 14, 0.72, -2, -23, -11, 3, 0.5, -2.5, 2.1
CCC(C(=O)OCC(=O)c1ccc(OC)cc1OC)c1ccccc1 (centres undefined)
    i, ., 0.7, 2, -7, 3.3, -2, 0.9, -0.4, 2.5
O=c1oc2ccccc2n1Cc1ccccc1
    i, -4, 0.65, 5, -2, 0.8, ., 0.2, -0.1, 4.3
O=C(NCc1cccc(Cl)c1)c1ccc2c(c1)SC1=NS(=O)(=O)CCN12
    i, 5, 0.69, 4, 1, -2.0, 5, -0.5, 0.4, -0.8
O=C(O)c1ccc2c(c1)N(Cc1ccccc1)C(=O)c1ccccc1S2
    i, -8, 0.68, -24*, -5.3*, 4.5*, -1, 1.1, 2.4, 2.1
CC(C)(C)n1ncc2c(=O)n(CC(=O)Nc3ccc(Cl)cc3)cnc21
    ., 24, 0.69, ., ., ., -2, -0.7, ., 3.3
CCSc1nnc(NC(=O)Nc2cccc(C)c2)s1
    ., 25, 0.67, -10, 3, -5.4, 16, -0.6, 1.8, 4.1
Cc1cc(C(=O)COc2ccccc2Cl)c(C)n1C1CC1
    i, ., 0.69, -19, -34, 0.3, 17, 0.1, 2.7, 1.5
Cc1ccc(C)c(NC(=O)c2nc(Cl)ccc2Cl)c1
    i, -8, 0.67, 4, 7, 0.6, -5, 0.7, -0.6, -5.1
OCc1ccccc1NC(=S)Nc1cccnc1
    ., -9, 0.7, ., ., ., -6, 1.3, ., 0.7
COc1ccc(C(=O)NCC2OCCc3ccccc32)cc1 (centres undefined)
    ., 4, 0.71, ., ., ., 1, -0.3, -1.5, 5.3
C[C@@]1([C@@H](NC(=O)c2cccs2)c2ccc(-c3ccccc3)cc2)C[C@H]1C1CCCCC1
    i, 41, ., 2, 5, -8.4, -1, 2.3, -0.9, 0.5
COc1ccccc1NC(=O)CSc1nnnn1-c1ccc(C)cc1
    ., -1, 0.72, ., ., ., 0, 0.8, ., 2.9
O=C(CSc1ncnc2scc(-c3ccccc3)c12)Nc1ccc(C(=O)O)cc1
    i, -1, 0.68, -30, -39, -11, 3, 0.6, -28, 4.2
COc1ccc(-c2nc3n(n2)C(=O)CC(c2ccco2)S3)cc1 (centres undefined)
    ., -5, 0.7, ., ., ., 0, 0.6, ., -1.0
O=C1C2C3C=CC(C3)C2C(=O)N1c1n[nH]c(-c2cccnc2)n1 (centres undefined)
    i, -10, 0.66, 2, -3, -9.1, -7, 0.2, -40, 0.9
CC(=O)NS(=O)(=O)c1cccnc1Nc1ccc(Cl)cc1
    ., -7, 0.69, ., ., ., -4, -0.9, ., 0.1
CCc1ccc(-c2cc3c(=O)n(CC(=O)N4CCCCCC4)nc(C)n3n2)cc1
    i, -4, 0.67, -5, -4, -1.9, 1, 1.2, 1.0, 2.1
C=CC[n+]1c(C)csc1Nc1ccc(C(=O)O)cc1
    i, -9, 0.67, 6, 9, -4.1, -2, 0.6, -0.5, 4.8
Cc1ccc2c(c1)[C@@H](O)C[C@@H](C)N2N=O
    ., 6, 0.66, ., ., ., -4, 0.0, ., 3.0
Cc1ccc(CNC(=O)c2cc(-c3ccccc3)nn2CC2CC(c3cccnc3)=NO2)cc1 (centres undefined)
    ., 37, 0.71, ., ., ., 2, -0.1, ., 0.0
CCN(C(=O)COC(=O)/C=C/c1cccc([N+](=O)[O-])c1)c1ccccc1
    i, -7, 0.73, 3, 0, -0.2, -2, 0.0, 0.0, 2.5
COc1ccc(C(=O)O/N=C2\C(=O)N(C)c3ccccc32)cc1
    i, -17, ., -1, 7, -0.4, -21, -0.1, ., .
O=c1ccc(Oc2nc(N3CCCCC3)nc(N3CCCCC3)n2)n[nH]1
    ., 4, 0.76, ., ., ., 7, -0.5, ., 0.8
O=C(O)CCC(=O)Nc1ccc(N2CCOCC2)cc1
    ., -12, 0.74, ., ., ., -7, -1.1, ., 1.2
CCN(CC(=O)NC1CCS(=O)(=O)C1)C(=O)/C=C/c1cccs1 (centres undefined)
    i, 3, 0.71, 20, 18, 4.5, -15, -0.6, -1.6, 6.5
COc1cc(/C=N/n2nnnc2N)cc(OC)c1OC
    i, -12, ., -4, 2, -1.4, -6, 0.5, 2.7, .
COc1cccc(COC(=O)Nc2ccccc2F)c1
    i, 5, 0.68, 5, -1, 1.1, -2, -9.8, 0.4, 0.2
O=c1ccc(Cl)nn1-c1ccccc1
    i, 12, 0.66, ., ., ., 1, 0.8, -3.5, 1.7
CCOCCOC(=O)C1=C(C)NC(=O)NC1c1cc2c(cc1Br)OCO2 (centres undefined)
    i, 4, 0.67, 15, 20, -0.1, 0, 0.3, -6.8, 4.6
COc1cccc(CNS(=O)(=O)c2c(C(=O)N3CCCCC3)c(C)n(C)c2C)c1
    i, 3, 0.68, 4, 6, 0.6, -10, 1.7, 2.2, 1.0
CCC(=O)N(Cc1cc(=O)[nH]c2ccccc12)c1ccccc1C
    i, -1, 0.69, -3, -6, -4.8, -3, 0.5, -22, 1.6
CC(=O)N/N=C(\C)c1cccc(C(F)(F)F)c1
    i, -10, ., 9, 5, -2.0, -2, -0.1, 3.1, .
CCCN(Cc1nnc(-c2ccccc2Cl)o1)C(=O)c1cccc(S(=O)(=O)N2CCOCC2)c1
    i, 3, 0.67, 2, 0, 5.2, -2, 0.6, -0.7, 2.4
COc1ccc(/C=N/NC(=O)c2ccc(NC(=O)c3cccc([N+](=O)[O-])c3)cc2)c(OC)c1
    i, -11, ., 10, 11, -0.9, 3, -0.4, -3.4, .
CCC(O)C1CCN(C(=O)c2cc(COc3ccc(F)cc3F)on2)CC1 (centres undefined)
    i, 9, 0.69, 6, 2, -0.5, ., ., -8.8, 3.6
O=C(Nc1ccc(CN2CCOCC2)cc1)c1ccccc1F
    ., -6, 0.72, ., ., ., -8, -1.3, ., 0.1
O=C(Nc1ccc(S(=O)(=O)NC2CCCCC2)cc1)c1ccco1
    i, -9, 0.69, 1, -5, 4.9, ., 0.1, 1.4, 1.4
Cc1c(Cc2ccccc2)c(=O)[nH]c(=O)n1C
    i, ., 0.69, 6, 11, -4.8, ., ., -2.4, 3.9
CN(C)CCn1c(N)nc2ccccc21
    i, -3, 0.71, 4, 4, 10, -2, -0.3, 6.9, 1.3
CCN1CCN(C(=O)C2CCCN(S(=O)(=O)c3cccc4nsnc34)C2)CC1 (centres undefined)
    i, -4, 0.69, 14, 10, 4.9, -4, -0.3, 0.4, -0.5
Cc1occc1-c1nnc(SCC(=O)c2c[nH]c3ccccc23)n1C
    ., ., 0.73, ., ., ., 3, 0.1, ., 0.1
COc1ccc(C(C)NC(=O)CC23CC4CC(CC(C4)C2)C3)cc1 (centres undefined)
    i, 19, 0.64, -22, -27, -5.6, 3, -1.4, -4.7, -0.1
COc1cccc(NC(=O)CSc2nnc(Cc3cccs3)n2-c2ccc(C)cc2)c1
    ., 8, 0.72, ., ., ., -6, 0.8, ., 0.0
COCCn1c(SCC(=O)N2CCC(C)CC2)nc2ccccc2c1=O
    ., -1, 0.69, ., ., ., -7, -0.6, ., 0.3

# Later entries
# Results follow in this order: FGF22 binding, T cruzi inh, E coli growth, rRNA inh HTS, rRNA inh HTS OD600, rRNA inh HTS RFP, Beta apoptosis, Bfl-1 A1 inh, MLL AF4-AF9 inh, UCH37 inh
COC(=O)c1cccc(N(CC(=O)NC2CCCCC2)C(=O)CNC(=O)c2cccs2)c1
    i, -16, 0.7, 4, 11, -1.0, 1, 1.0, 2.9, 2.2
COc1cc(CN2CCN(Cc3ccco3)CC2)cc(OC)c1
    i, -11, 0.67, 4, 6, -1.1, -5, 0.3, 2.2, 4.7
NC(=O)C[C@H](NC(=O)c1ccc(Cl)cc1)C(=O)OCc1ccccc1
    i, ., 0.67, 4, 8, -1.6, -1, -0.3, -1.4, -2.2
CCOc1ccc(NC(=O)COC(=O)c2n[nH]c3ccccc23)cc1
    i, ., 0.68, -4, 3, 5.1, 6, -0.8, -1.9, 1.4
Cc1ccc2c(c1)N(CC(=O)N1CCN(C3CCCCC3)CC1)C(=O)CO2
    i, 0, 0.65, 5, 7, -3.4, -3, 0.0, 3.7, 1.2
O=C(O)c1cccc(CSc2n[nH]c(-c3ccc(Cl)cc3Cl)n2)c1
    i, 1, 0.72, -34, -49, -9.1, -13, 0.4, -2.2, 6.1
COc1ccc(Nc2nc(N)nc(CN3CCN(c4ccc(F)cc4)CC3)n2)cc1
    ., -42, 0.67, ., ., ., -8, 1.1, ., 2.4
Cn1cc([N+](=O)[O-])c(C(=O)n2cccn2)n1
    i, -16, 0.64, 4, 14, -1.6, 0, -0.4, -1.4, 3.2

# Screens from PubChem BioAssay.
